INS promoter inh – inhibitors of insulin promoter-driven GFP, primary screen, imaging, TRM-6 cells (human fetal islet line), eGFP reporter, cell count; reporter expression induced with tamoxifen; 0.9% of 130,000 active; inhibition, % at 2 µM; AID 1273, 2008;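 active means inhibition above the mean plus 3 SD, with well images judged a real hit on visual review, cut at about 60% in these data, passing the limit was not always enough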
RGS16-Gao HTS – modulators of RGS16 binding to Galphao, primary screen, biochemical, human proteins, multiplexed bead flow cytometry; binding response (% of control), % at 10 µM; 0.38% of 220,000 active; bead-based flow cytometry RGS16-Galphao binding, fluorescence; actives lie on both sides; AID 1441, 2008;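 active means below 25% or above 175%, edge rows of some plates excepted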;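 further: Galphao activated by GDP with aluminum fluoride before binding; 100% = wells without compound and 0% = beads without RGS; some results beyond the cut were filed as inactive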
Target sequence (O15492 whole entry, looked up): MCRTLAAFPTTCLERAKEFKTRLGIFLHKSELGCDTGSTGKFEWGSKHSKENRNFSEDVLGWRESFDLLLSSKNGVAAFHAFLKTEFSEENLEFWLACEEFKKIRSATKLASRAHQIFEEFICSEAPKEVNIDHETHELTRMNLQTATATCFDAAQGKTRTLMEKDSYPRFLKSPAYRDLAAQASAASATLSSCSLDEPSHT
Target sequence (P09471 whole entry, looked up): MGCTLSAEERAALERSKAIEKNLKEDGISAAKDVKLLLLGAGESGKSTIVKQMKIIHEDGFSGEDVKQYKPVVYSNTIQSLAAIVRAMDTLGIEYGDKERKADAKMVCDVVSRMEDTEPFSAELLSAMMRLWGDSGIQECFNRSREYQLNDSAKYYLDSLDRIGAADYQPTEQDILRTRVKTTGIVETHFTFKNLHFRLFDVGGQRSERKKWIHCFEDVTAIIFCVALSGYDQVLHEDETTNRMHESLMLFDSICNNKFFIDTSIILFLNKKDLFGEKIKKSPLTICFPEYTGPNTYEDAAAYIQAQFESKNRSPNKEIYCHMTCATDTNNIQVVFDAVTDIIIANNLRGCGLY
HSV augment – enhancers of HSV replication in host cells, fold increase, host cell viability | HSV replication augmentation in cells | maximum fold increase | 0.005% of 220,000 active | AID 1956, 2009;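 active means peak rise of 1.5-fold or more in the series; tested in PC3 cells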;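 further: first round at 10 µM; read as green reporter fluorescence; hits show the peak of a series up to 25 µM; 1 = signal of infected wells without compound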
GALR2 ag – GALR2 receptor agonists, primary screen, cell-based; activation, %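 (tested at 5 µM)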; 0.48% of 140,000 active; Galanin receptor type 2 (Homo sapiens), O43603; AID 803, 2007; GALR2-expressing cells, agonist activation read-out;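 active means above mean plus 3 SD of all compounds, about 5% in these data, not always enough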;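 further: 0% = vehicle buffer wells and 100% = reference agonist at full effect; tested in CHO reporter cells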
Target sequence (O43603 whole entry, looked up): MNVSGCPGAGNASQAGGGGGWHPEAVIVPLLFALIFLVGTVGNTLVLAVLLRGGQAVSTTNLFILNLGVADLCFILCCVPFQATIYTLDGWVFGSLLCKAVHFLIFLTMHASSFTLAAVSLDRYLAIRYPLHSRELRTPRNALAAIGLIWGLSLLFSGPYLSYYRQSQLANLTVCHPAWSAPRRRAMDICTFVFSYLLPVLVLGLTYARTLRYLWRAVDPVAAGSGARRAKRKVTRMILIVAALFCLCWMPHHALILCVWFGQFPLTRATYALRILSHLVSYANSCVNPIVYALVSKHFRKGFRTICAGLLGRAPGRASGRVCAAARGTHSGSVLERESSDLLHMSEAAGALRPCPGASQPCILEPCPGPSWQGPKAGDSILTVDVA
PKD1 kinase inh – inhibitors of human PKD1 kinase, biochemical, fluorescence polarization | PKD1 kinase fluorescence polarization assay | inhibition, %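 (about 10 µM by stock and volumes)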 | 0.056% of 200,000 active | Serine/threonine-protein kinase D1 (Homo sapiens), Q15139;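 active means inhibition of 50% or more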;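 further: controls were vehicle for no effect and a reference inhibitor for full effect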
INS promoter inh cell count – second read-out of INS promoter inh, no call of its own (marks repeat the call); normalized cell count, %; measured here: cell count, toxicity; reference of the scale not given here;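 cells exposed to compound for 48 h; stained nuclei by imaging scaled within each plate; lower means fewer cells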
HSV augment primary fold – further read-out of HSV augment, marked with its call; fold increase; compound at 10 µM; measured here: primary screen fold increase 10 uM; tested in PC3 cells;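 GFP signal in the first replicate; 1 = infected wells without compound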
The depositor's hits bear a star. An unsorted share of the library; overall some 1.3% were active at least once.

Screening CC(C)=CC(=O)OCC(=O)Nc1ccc(Cl)cn1 returned INS promoter inh 28.1, RGS16-Gao HTS 104.5, HSV augment inactive, GALR2 ag -1.8, PKD1 kinase inh 0.6, INS promoter inh cell count 124.5 and HSV augment primary fold 0.87.
`CC1=C(C(=O)NCc2ccccn2)C2(CCC(C)CC2)OC1=O` (stereo not given) gave RGS16-Gao HTS 101.4, GALR2 ag -1.1 and PKD1 kinase inh -9.1.
`COc1ccc(OC)c(NC(=O)C2CCN(S(C)(=O)=O)CC2)c1` gave INS promoter inh 2.5, RGS16-Gao HTS 96.8, HSV augment inactive, GALR2 ag -1.4, PKD1 kinase inh -7.8, INS promoter inh cell count 154.6 and HSV augment primary fold 0.88.
For Oc1c(C=C2N=c3ccccc3=N2)sc(=S)n1-c1ccccc1 the results were RGS16-Gao HTS 114.2, HSV augment inactive, GALR2 ag -2.8, PKD1 kinase inh -13.0 and HSV augment primary fold 1.12.
Screening COc1ccccc1N1CCN(C(c2cccs2)c2nnnn2C2CCCC2)CC1 (stereo not given) returned INS promoter inh 0.0, RGS16-Gao HTS 106.1, HSV augment inactive, GALR2 ag -1.9, PKD1 kinase inh -12.1, INS promoter inh cell count 95.4 and HSV augment primary fold 0.66.
Screening N=C1S/C(=C\c2ccco2)C(=O)N1c1ccc2c(c1)OCO2 returned RGS16-Gao HTS 106.8, HSV augment inactive, PKD1 kinase inh -7.7 and HSV augment primary fold 1.11.
Screening CC(=O)Cn1ncc(Br)c(Br)c1=O returned RGS16-Gao HTS 98.0, HSV augment inactive, PKD1 kinase inh 1.3 and HSV augment primary fold 0.6.
COc1ccc(C(=O)N(Cc2nc(-c3ccc(C)cc3)no2)C2CCCCC2)cc1OC was read as RGS16-Gao HTS 101.2, HSV augment inactive, GALR2 ag -1.6, PKD1 kinase inh -14.4 and HSV augment primary fold 0.86.
For Cc1ccc(-n2c(C)nc3c(cnn3-c3ccccc3Cl)c2=O)cc1C the results were INS promoter inh 3.2, RGS16-Gao HTS 101.7, HSV augment inactive, GALR2 ag -1.1, PKD1 kinase inh 1.9, INS promoter inh cell count 111.8 and HSV augment primary fold 0.92.
`CCOc1ccc(-c2cc(CCCC(=O)N3CCN(c4ccc(OC)cc4)CC3)no2)cc1` gave RGS16-Gao HTS 102.9, HSV augment inactive, GALR2 ag -0.5, PKD1 kinase inh -4.3 and HSV augment primary fold 0.67.
Screening C/C(=N\NC(=O)c1c(Cl)cnn1C)c1ccc(NC(=O)c2ccncc2)cc1 returned INS promoter inh 32.1, RGS16-Gao HTS 101.0, HSV augment inactive, GALR2 ag -1.4, PKD1 kinase inh -7.3, INS promoter inh cell count 93.4 and HSV augment primary fold 1.04.
For Nc1nc(SCc2c(Cl)cccc2Cl)n[nH]1 the results were RGS16-Gao HTS 103.4, HSV augment inactive, GALR2 ag 0.3, PKD1 kinase inh -11.9 and HSV augment primary fold 1.03.
For O=C(c1ccc(S(=O)(=O)N2CCC(c3nc4ccccc4[nH]3)CC2)cc1)N1CCOCC1 the results were RGS16-Gao HTS 87.1, HSV augment inactive, GALR2 ag -0.5, PKD1 kinase inh -6.8 and HSV augment primary fold 1.07.
CCCN1C(=O)C(O)(C2COC(C)(C)CC2=O)c2ccccc21 (stereo not given) was read as RGS16-Gao HTS 99.5, HSV augment inactive, PKD1 kinase inh -4.1 and HSV augment primary fold 1.
S=C(Nc1cccc2ccccc12)N1CCN(c2ncccn2)CC1 was read as INS promoter inh 20.7, RGS16-Gao HTS 98.9, HSV augment inactive, GALR2 ag -2.0, PKD1 kinase inh -2.2, INS promoter inh cell count 122.5 and HSV augment primary fold 0.98.
`Cc1nc(=O)c(-c2ccccc2)c(C)n1-c1ccc(S(N)(=O)=O)cc1` gave INS promoter inh -25.0, RGS16-Gao HTS 102.9, HSV augment inactive, GALR2 ag -0.2, PKD1 kinase inh -0.2, INS promoter inh cell count 127.0 and HSV augment primary fold 0.95.
`N#Cc1cc(Oc2cccc3cccnc23)c(-n2nnc3ccccc32)cc1C#N` gave RGS16-Gao HTS 99.7, HSV augment inactive, GALR2 ag -5.8, PKD1 kinase inh 7.2 and HSV augment primary fold 0.8.
`Cc1ccc(C)n1-c1ccc(C(=O)O)cc1` gave INS promoter inh 1.4, RGS16-Gao HTS 72.8, HSV augment inactive, GALR2 ag -0.3, PKD1 kinase inh -1.0, INS promoter inh cell count 103.7 and HSV augment primary fold 0.96.
`CCOC(=O)c1[nH]c(C)c(C(=O)OCC(=O)NC2CCS(=O)(=O)C2)c1C` (stereo not given) gave RGS16-Gao HTS 99.5, HSV augment inactive and HSV augment primary fold 0.99.
For Cc1cc(C(F)(F)F)nn1CC(=O)Nc1ccc(Br)c2cccnc12 the results were INS promoter inh 0.0, RGS16-Gao HTS 98.6, HSV augment inactive, GALR2 ag -0.7, PKD1 kinase inh -11.9, INS promoter inh cell count 78.6 and HSV augment primary fold 0.96.
CCC(=O)c1ccc(OCc2ccc(C#N)cc2)cc1 was read as RGS16-Gao HTS 111.9, HSV augment inactive, PKD1 kinase inh -7.5 and HSV augment primary fold 0.92.
`CCCCNC(=O)CCNC(=O)c1ccc(C(C)(C)C)cc1` gave INS promoter inh -61.1, RGS16-Gao HTS 103.5, HSV augment inactive, GALR2 ag -1.5, PKD1 kinase inh 8.8, INS promoter inh cell count 92.2 and HSV augment primary fold 0.88.
Cc1ccc(O)c(C(=O)c2cnc3c(c2)CN(C)C(=O)N3)c1 was read as INS promoter inh -5.5, RGS16-Gao HTS 104.2, HSV augment inactive, GALR2 ag -3.1, PKD1 kinase inh -6.3, INS promoter inh cell count 88.9 and HSV augment primary fold 0.91.
For CSc1nc2c(ccc3ccccc32)o1 the results were INS promoter inh -21.0, RGS16-Gao HTS 99.5, HSV augment inactive, GALR2 ag -1.0, PKD1 kinase inh -0.8, INS promoter inh cell count 251.4 and HSV augment primary fold 0.99.
For O=C(Nc1ccccc1)OC1CCS(=O)(=O)C1 (stereo not given) the results were RGS16-Gao HTS 135.0, HSV augment inactive, GALR2 ag -0.5, PKD1 kinase inh 4.7 and HSV augment primary fold 0.89.
For CCCP(=O)(CCC)CCP(=O)(c1ccccc1)c1ccccc1 the results were INS promoter inh -6.2, RGS16-Gao HTS 105.0, HSV augment inactive, GALR2 ag -2.8, PKD1 kinase inh -0.6, INS promoter inh cell count 134.5 and HSV augment primary fold 1.02.
`Nc1ccc(NC(=O)c2ccc(C(=O)Nc3ccc(N)cc3)cc2)cc1` gave RGS16-Gao HTS 102.4, HSV augment inactive and HSV augment primary fold 0.81.
For CC(O)Cc1nsc(NC(=O)c2cccs2)n1 (stereo not given) the results were RGS16-Gao HTS 101.7, HSV augment inactive, GALR2 ag -1.9, PKD1 kinase inh -2.7 and HSV augment primary fold 0.94.
`O=C(Nc1cnn(Cc2c(Cl)cccc2Cl)c1)c1ccc([N+](=O)[O-])cc1` gave RGS16-Gao HTS 103.5, HSV augment inactive, GALR2 ag -1.5, PKD1 kinase inh -6.4 and HSV augment primary fold 1.02.
Screening Nc1ncnc2c1ncn2[C@@H]1O[C@H](CO)C[C@@H]1O returned RGS16-Gao HTS 96.3, HSV augment inactive and HSV augment primary fold 0.69.

Reprinted from the part before: 3 compounds; new compounds follow.
For CC(O)Cc1nsc(NC(=O)c2cccs2)n1 (stereo not given) the results were RGS16-Gao HTS 101.7, HSV augment inactive, GALR2 ag -1.9, PKD1 kinase inh -2.7 and HSV augment primary fold 0.94.
`O=C(Nc1cnn(Cc2c(Cl)cccc2Cl)c1)c1ccc([N+](=O)[O-])cc1` gave RGS16-Gao HTS 103.5, HSV augment inactive, GALR2 ag -1.5, PKD1 kinase inh -6.4 and HSV augment primary fold 1.02.
Screening Nc1ncnc2c1ncn2[C@@H]1O[C@H](CO)C[C@@H]1O returned RGS16-Gao HTS 96.3, HSV augment inactive and HSV augment primary fold 0.69.
Screening CN1CCN(C(=S)NC(=O)c2cccc(S(=O)(=O)N(C)C)c2)CC1 returned RGS16-Gao HTS 94.9, HSV augment inactive, PKD1 kinase inh -1.2 and HSV augment primary fold 0.98.
For COc1cc2c(cc1NC(=O)CN1CCN(S(=O)(=O)c3ccc(C)cc3)CC1)oc1ccccc12 the results were INS promoter inh -3.3, RGS16-Gao HTS 101.7, GALR2 ag -1.6, PKD1 kinase inh -5.3 and INS promoter inh cell count 108.5.
For COc1ccc2nc(SCc3cnc(C)nc3N)[nH]c2c1 the results were INS promoter inh 9.1, RGS16-Gao HTS 100.3, HSV augment inactive, GALR2 ag 0.7, PKD1 kinase inh 1.9, INS promoter inh cell count 78.2 and HSV augment primary fold 1.01.
O=C(CN1C(=O)C2C3C=CC(C3)C2C1=O)Nc1nc(-c2ccccn2)cs1 (stereo not given) was read as INS promoter inh -81.2, RGS16-Gao HTS 94.7, HSV augment inactive, GALR2 ag -1.9, PKD1 kinase inh 3.1, INS promoter inh cell count 30.1 and HSV augment primary fold 0.997.
Cc1ccc(NC(=S)NCc2ccccc2)cc1[N+](=O)[O-] was read as RGS16-Gao HTS 96.1, HSV augment inactive, GALR2 ag -2.0, PKD1 kinase inh -4.8 and HSV augment primary fold 0.87.
`Cc1ccc(Cn2cc(/C=C/C(=O)O)c(-c3ccccc3)n2)cc1` gave INS promoter inh -5.3, RGS16-Gao HTS 101.2, HSV augment inactive, GALR2 ag -0.4, PKD1 kinase inh -15.5, INS promoter inh cell count 162.7 and HSV augment primary fold 0.97.
CC(C)NS(=O)(=O)c1ccc(OCC(=O)N2CCc3ccccc3C2)cc1 was read as RGS16-Gao HTS 104.2, HSV augment inactive, PKD1 kinase inh -6.1 and HSV augment primary fold 0.91.
`Cc1ccc(NC(=S)N2CCCCC2CO)cc1C` (stereo not given) gave RGS16-Gao HTS 98.2, HSV augment inactive, PKD1 kinase inh -0.7 and HSV augment primary fold 1.15.
Screening O=C(Nc1nc2ccc(SC(F)F)cc2s1)c1ccc(NS(=O)(=O)c2ccc(F)c(F)c2)cc1 returned INS promoter inh -92.3, RGS16-Gao HTS 99.0, HSV augment inactive, GALR2 ag 0.6, PKD1 kinase inh -6.1, INS promoter inh cell count 108.9 and HSV augment primary fold 1.03.
Screening CCN(CC)S(=O)(=O)c1ccc(-c2csc(C)n2)cc1 returned RGS16-Gao HTS 89.0, HSV augment inactive, PKD1 kinase inh -2.8 and HSV augment primary fold 0.97.
For O=C1c2ccccc2C(=O)N1OCc1cccc(Cl)c1 the results were INS promoter inh 10.3, RGS16-Gao HTS 102.6, HSV augment inactive, GALR2 ag -1.9, PKD1 kinase inh -10.9, INS promoter inh cell count 85.0 and HSV augment primary fold 0.977.
CCc1nnc(NC(=O)C2=CCN(S(=O)(=O)c3ccc(F)cc3)CC2)s1 was read as RGS16-Gao HTS 103.8, HSV augment inactive and HSV augment primary fold 1.02.
For CCOC(=O)CN1CC23C=CC(O2)C(C(=O)NCc2ccccc2OC)C3C1=O (stereo not given) the results were RGS16-Gao HTS 102.2, HSV augment inactive, GALR2 ag -0.7, PKD1 kinase inh -8.1 and HSV augment primary fold 0.98.
For COc1ccc(N2CC(O)=C(c3nc4ccccc4s3)C2=N)c(OC)c1 the results were INS promoter inh -56.5, RGS16-Gao HTS 99.6, HSV augment inactive, GALR2 ag 0.1, PKD1 kinase inh 1.5, INS promoter inh cell count 42.0 and HSV augment primary fold 0.73.
CCn1c2ccccc2n2c(=O)c(=O)n(CC(=O)N3CCN(c4ccccc4OC)CC3)nc12 was read as INS promoter inh 38.1, RGS16-Gao HTS 172.9, HSV augment inactive, PKD1 kinase inh -1.8, INS promoter inh cell count 74.2 and HSV augment primary fold 0.87.
`CCOC(=O)c1ccccc1NC(=O)c1cncc(Br)c1` gave INS promoter inh -340.0, RGS16-Gao HTS 108.8, HSV augment inactive, GALR2 ag -2.0, PKD1 kinase inh 0.7, INS promoter inh cell count 78.0 and HSV augment primary fold 0.89.
`CCOc1ccccc1OCCOc1ccccc1OC(C)C` gave INS promoter inh -41.7, RGS16-Gao HTS 86.3, HSV augment inactive, GALR2 ag 0.2, PKD1 kinase inh 1.5, INS promoter inh cell count 125.3 and HSV augment primary fold 0.9.
`CCOc1ccc(C(=O)NC(=S)N2CCN(c3ccc(C(F)(F)F)cc3[N+](=O)[O-])CC2)cc1` gave INS promoter inh 18.8, RGS16-Gao HTS 101.7, HSV augment inactive, GALR2 ag -1.2, PKD1 kinase inh 2.8, INS promoter inh cell count 74.6 and HSV augment primary fold 0.93.
`CC(=O)/C(=C/N(C)C)C(=O)Nc1ccc(Cl)cc1Cl` gave INS promoter inh -100.0, RGS16-Gao HTS 106.7, HSV augment inactive, PKD1 kinase inh -4.4, INS promoter inh cell count 139.3 and HSV augment primary fold 0.99.

Source: PubChem BioAssay (several laboratories)
